Compound activity: PubChem BioAssay, ICCB-Longwood Screening Facility, Harvard Medical School
AID504770 – growth inhibitors of E. coli YBA685 in a screen for V. cholerae RctB (chromosome II replication) inhibitors; E. coli YBA685 rctB-dependent plasmid, OD600 growth, 3 h; stronger effect = lower value; z-score (no concentration beside the values); 130,000 tested, 0.27% active; AID 504770;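 active = z-score under -2 on both plates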;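 also: wells of about 30 µL received 100 nL stock; score is relative to mean and SD of the test wells; the first replicate is given; strong numbers were not always called active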
Ba CapD inh – CapD enzyme inhibition; AID 492967; 140,000 tested, 0.23% active; purified CapD enzyme, fluorescence intensity read-out; stronger effect = lower value; some hits fall short of the stated cut; z-score (no concentration beside the values);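 active = z-score under -4 in either of two replicates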;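 also: stock transfer was 100 nL into about 40 µL; score is relative to mean and spread of the plate; one replicate is shown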
* = called active by the depositor.

Results for COc1ccc(CCNC(=O)c2ccc3c(=O)n(Cc4ccc5c(c4)OCO5)c(=S)[nH]c3c2)cc1OC ?
Ba CapD inh: -1.4

Results for O=C(Nc1c2c(nn1-c1ccc(Cl)cc1)CSC2)c1ccc(S(=O)(=O)N2CCCCC2)cc1 ?
Ba CapD inh: -0.49

What do the screens show for `O=C(Nc1ccc(OC(F)(F)F)cc1)Nc1cc(-c2ccccc2)[nH]n1`?
AID504770: 0.55; Ba CapD inh: 0.82

How did O=C(O)CCCn1c(O)c(C2=c3ccccc3=NC2=O)sc1=S do in these assays?
AID504770: -0.9; Ba CapD inh: -0.52

Results for N#CCSc1nc2ccccc2c(=O)n1Cc1ccccc1 ?
AID504770: -0.3; Ba CapD inh: -0.005

How did CC(=O)N1CCC(N(C(=O)c2ccc(C(F)(F)F)nc2)C2CC2)CC1 do in these assays?
Ba CapD inh: -0.18

How did CSc1nn(CCc2ccncc2)c(=S)s1 do in these assays?
AID504770: 1.1; Ba CapD inh: -0.54

Results for CN(C)S(=O)(=O)c1ccc(C(=O)NCCSc2c[nH]c3ccccc23)cc1 ?
AID504770: 0.3; Ba CapD inh: -0.005

Results for Cc1c(C)n(Cc2ccccc2)c2ccc(C(=O)O)cc12 ?
AID504770: -0.85; Ba CapD inh: 9.8

What do the screens show for `COc1ccc(/C=C2\SC(=S)N(CCC(=O)Nc3ccc(O)c(C(=O)O)c3)C2=O)cc1OC`?
Ba CapD inh: -0.48

Results for O=C(O)/C=C/c1ccc(-c2cccc(C(F)(F)F)c2)o1 ?
AID504770: -1.1; Ba CapD inh: inactive

What do the screens show for `C=CCn1c(SCCC(=O)Nc2ccc(S(N)(=O)=O)cc2)nc2sc3c(c2c1=O)CCCC3`?
Ba CapD inh: 0.34

How did COC(=O)C1=C(C)Nc2nnnn2C1c1ccc(Br)cc1 (configuration not stated) do in these assays?
Ba CapD inh: -1.2

How did COc1cccc(C(=O)NCc2ccc3c(c2)OCO3)c1 do in these assays?
AID504770: -1.1

What do the screens show for `COc1ccc(S(=O)N2CCN(c3ccccc3F)CC2)c(OC)c1C` (configuration not stated)?
Ba CapD inh: -0.32

How did Cc1nn(-c2ccccc2)nc1C(=O)Nc1ccc2[nH]ncc2c1 do in these assays?
Ba CapD inh: 2.1

Results for CCCc1cc(C(=O)NCc2ccco2)no1 ?
AID504770: -1.5; Ba CapD inh: 0.085

What do the screens show for `O=C(O)c1ccc(N2C(=O)/C(=C/c3ccc(Cl)cc3)C=C2c2ccccc2)cc1`?
Ba CapD inh: -1.1

What do the screens show for `COc1ccc(/C=C(\C#N)c2ccc(O)cc2)cc1OC`?
AID504770: 0.9; Ba CapD inh: 13

What do the screens show for `Cc1cc2cc(CNC(=O)C3CCCCC3)ccc2n1C`?
AID504770: -0.1; Ba CapD inh: 0.1

How did O=C(CCn1c(=O)oc2ccccc21)NCc1cccs1 do in these assays?
AID504770: 1.4; Ba CapD inh: -1.2

What do the screens show for `CCS(=O)CCSc1nc2ccccc2s1` (configuration not stated)?
AID504770: 0.65

How did CNC(=O)c1sccc1S(=O)(=O)Cc1c(Cl)cccc1Cl do in these assays?
Ba CapD inh: -0.33

Results for CCCOc1ccc(/C=C2\C(=O)N(c3ccc(C(=O)OC(C)C)cc3)N=C2C)cc1OC ?
Ba CapD inh: 0.52

What do the screens show for `CCOC(=O)c1c(NC(=O)CSc2ncnc3ccccc23)sc2c1CCC2`?
AID504770: -0.15; Ba CapD inh: -0.31

What do the screens show for `COc1ccccc1-c1nnc(C2CCN(S(=O)(=O)c3ccc(S(=O)(=O)N4CCCCCC4)cc3)CC2)o1`?
AID504770: 0.4; Ba CapD inh: -0.42

What do the screens show for `CCOC(=O)c1c(C)oc(=O)c(Br)c1C`?
AID504770: 0.55; Ba CapD inh: -0.91

Results for COc1c(Cl)cc(Cl)cc1C1C(C#N)=C(N)Oc2n[nH]c(-c3cccs3)c21 (configuration not stated) ?
Ba CapD inh: 0.42

How did O=C(Nc1ccccc1)c1c2c(nc3ccccc13)CCC2 do in these assays?
AID504770: 0.35; Ba CapD inh: 1.6

What do the screens show for `COC(=O)C1=C(N)OC(C)=C(C(C)=O)C12C(=O)Nc1ccc(Br)cc12` (configuration not stated)?
Ba CapD inh: -0.37

Results for Cc1cccc(-c2nc3c(c(=O)[nH]2)Cc2ccccc2O3)c1 ?
AID504770: 0.25; Ba CapD inh: 1.9

How did O=C1N=C(N2CCCC2)S/C1=C/c1ccc(-c2ccccc2)o1 do in these assays?
AID504770: 0.35

What do the screens show for `CC(=O)Nc1c(C#N)c2nc3ccccc3nc2n1C1CCCCC1`?
AID504770: -1; Ba CapD inh: 16

What do the screens show for `Oc1cccc2ccc(Nc3ccc4cccc(O)c4n3)nc12`?
AID504770: 0.1; Ba CapD inh: 0.76

Results for CCCN(CC1CC1)C(=O)CSc1nnc(-c2ccco2)n1N ?
AID504770: 1

How did C=CCn1c(=N)c(C#N)cc2c(=O)n3ccccc3nc21 do in these assays?
AID504770: -0.45; Ba CapD inh: 0.43

Results for O=C(CSc1ncnn1CC(=O)c1ccc(Br)cc1)c1ccc(Br)cc1 ?
AID504770: 0.8; Ba CapD inh: -0.18

How did Oc1ccccc1-c1cncn1Cc1ccccc1 do in these assays?
AID504770: 2; Ba CapD inh: -1.1

What do the screens show for `Cc1cc(N)n2nc(-c3ccccc3)cc2n1`?
AID504770: -0.8; Ba CapD inh: 68

Results for CC(=O)Oc1ccc2nc(CN3C(=O)c4ccccc4C3=O)oc(=O)c2c1 ?
AID504770: -1.1; Ba CapD inh: -0.39

Next part (3 carried over from the part before).
How did Oc1ccccc1-c1cncn1Cc1ccccc1 do in these assays?
AID504770: 2; Ba CapD inh: -1.1

What do the screens show for `Cc1cc(N)n2nc(-c3ccccc3)cc2n1`?
AID504770: -0.8; Ba CapD inh: 68

Results for CC(=O)Oc1ccc2nc(CN3C(=O)c4ccccc4C3=O)oc(=O)c2c1 ?
AID504770: -1.1; Ba CapD inh: -0.39

Results for CCN1CCN(CCCNC(=O)c2ccc(Cn3c(=S)[nH]c4ccc(Br)cc4c3=O)cc2)CC1 ?
Ba CapD inh: -0.76

What do the screens show for `Cc1cc(Br)ccc1SCC(=O)OCC(=O)N1CCCC(C)C1` (configuration not stated)?
AID504770: -0.2; Ba CapD inh: -0.96

What do the screens show for `CC(C)(CNC(=O)COc1ccccc1Cc1ccccc1)N1CCOCC1`?
AID504770: -0.9

How did CCCCn1c(=O)[nH]c(=O)c2c1nc(CNc1ccc(Cl)cc1)n2CCC(C)C do in these assays?
AID504770: 0.85

Results for CC(C)(CC(=O)O)CC(=O)N1CCN(c2ccc(Cl)cc2)CC1 ?
Ba CapD inh: -0.85

Results for COc1ccc(C2SCC(C(=O)NCc3ccc(F)cc3)N2C(C)=O)cc1 (configuration not stated) ?
AID504770: -1.1; Ba CapD inh: 74

What do the screens show for `O=S(Cc1ccc2nonc2c1)c1cccs1` (configuration not stated)?
AID504770: -1.1; Ba CapD inh: -0.33

What do the screens show for `CC(=O)Nc1ccccc1OCC(=O)c1cc(C)n(Cc2cccs2)c1C`?
AID504770: 0.45

What do the screens show for `CCCCNC(=O)n1nccc1-c1sc(-c2cccs2)nc1C`?
AID504770: 1.2; Ba CapD inh: 86

Results for Cc1nc(N)oc1C(O)c1ccccc1 (configuration not stated) ?
AID504770: -0.85; Ba CapD inh: 0.6

What do the screens show for `COc1ccc(N2COC(C)c3nc4ccccc4n3C2)cc1` (configuration not stated)?
AID504770: -0.25; Ba CapD inh: 0.05

What do the screens show for `COC(=O)c1ccc(/C=C2\SC(N)=NC2=O)cc1`?
AID504770: 0.3; Ba CapD inh: 0.77

How did C=CCSc1nnc2c(n1)OC(c1ccccc1OCC(=O)O)Nc1ccccc1-2 (configuration not stated) do in these assays?
AID504770: -0.75; Ba CapD inh: 0.6

What do the screens show for `COc1cc(C=C2C(=O)NC(=S)NC2=O)ccc1OS(=O)(=O)c1ccccc1`?
Ba CapD inh: -1.5

What do the screens show for `Cc1ccc(S(=O)(=O)N(C)C)cc1`?
AID504770: -0.55; Ba CapD inh: 1.1

How did Cc1ccc2nc(NC(=O)CN3C(=O)C4C5C=CC(C5)C4C3=O)sc2c1 (configuration not stated) do in these assays?
AID504770: -3.5; Ba CapD inh: 0.29

What do the screens show for `NC(=O)c1oc2ccc(Cl)cc2c1N`?
Ba CapD inh: 71

How did COC(=O)c1ccc(NC(=O)CSc2ncnc3ccccc23)cc1 do in these assays?
AID504770: 0.65; Ba CapD inh: 0.34

How did CCOP(=O)(c1ccccc1)c1ccccc1 do in these assays?
AID504770: -0.3; Ba CapD inh: -0.095

What do the screens show for `CCN1/C(=C2/SC(=S)N(CC(=O)O)C2=O)C=Cc2cc(OC)ccc21`?
AID504770: 0.6; Ba CapD inh: -0.005

Results for CC1CCC(NC(=O)C2c3ccccc3C(=O)N2CCCN2CCOCC2)CC1 (configuration not stated) ?
AID504770: 0.4; Ba CapD inh: 0.01

Results for O=C(CN1C(=O)C2CC=CCC2C1=O)Nc1ccc(-c2nnc3n2CCCCC3)cc1 (configuration not stated) ?
AID504770: -0.4

What do the screens show for `O=S(=O)(c1ccccc1)N1CCCN(c2nccc(C(F)(F)F)n2)CC1`?
AID504770: -0.1; Ba CapD inh: 1.8

Results for COC(=O)C12CCC(C)(c3nc4ccccc4nc31)C2(C)C (configuration not stated) ?
AID504770: -0.25; Ba CapD inh: -1.5

How did O=C(COc1ccccc1)Nc1ccc(S(=O)(=O)N2CCCC2)cc1 do in these assays?
AID504770: 0.7; Ba CapD inh: 0.1

Results for COc1ccc(OC(=O)c2ccc3snnc3c2)cc1 ?
AID504770: -0.3

Results for COc1ccc(C2=NN(CC(=O)NC3CCCCC3C)C(=O)CC2)cc1 (configuration not stated) ?
AID504770: 1; Ba CapD inh: -0.39

Results for COC(=O)c1noc(C)c1C(=O)/C=C/N(C)C ?
AID504770: -0.85; Ba CapD inh: 7.3

Results for O=C(NCc1ccccc1CN1CCOCC1)C1CC(=O)N(c2cccc3ccccc23)C1 (configuration not stated) ?
AID504770: 0

Results for CCOCCCNC(=O)c1ccc2nc3[nH]c4ccccc4c3nc2c1 ?
Ba CapD inh: 0.24

How did COC(=O)c1cn(Cc2ccccc2C#N)c2ccccc12 do in these assays?
AID504770: -0.45

Results for CC(C)N(CC(N)=O)C(=O)Cc1ccc(Cl)cc1 ?
AID504770: 0.3

How did O=C1c2ccc3c4c(ccc(c24)C(=O)N1c1cccc(O)c1)C(=O)N(c1cccc(O)c1)C3=O do in these assays?
Ba CapD inh: 0.19

What do the screens show for `CCN(CC)c1nc(-c2ccncc2)nc2ccccc12`?
AID504770: -0.3; Ba CapD inh: 4

What do the screens show for `CN(C)C(CNC(=O)c1oc2ccccc2c1CSc1ncn[nH]1)c1ccco1` (configuration not stated)?
AID504770: 0.1

How did C=C(C)CSc1nnc(SCc2cccc3ccccc23)s1 do in these assays?
AID504770: -0.9; Ba CapD inh: -0.52

What do the screens show for `CC(=O)Nc1cccc(OCc2cc(=O)n3nc(C4CC4)sc3n2)c1`?
AID504770: -0.2; Ba CapD inh: 0.64

How did Oc1cc2c(cc1C(c1ccc(C(F)(F)F)cc1)N1CCOCC1)OCO2 (configuration not stated) do in these assays?
AID504770: -0.85; Ba CapD inh: -0.76

What do the screens show for `O=C(NC1CCN(Cc2ccc(N3CCCC3)cc2)C1)c1ccc(-n2nc(-c3ccccc3)cc2-c2ccccc2)cc1` (configuration not stated)?
Ba CapD inh: -0.24

What do the screens show for `CCOc1ccc(N2C(=O)C3C(c4ccc(F)cc4)OC4(C(=O)c5ccccc5C4=O)C3C2=O)cc1` (configuration not stated)?
Ba CapD inh: -0.05

What do the screens show for `COc1cc(Br)c(CN2CCN(C(=O)OCCc3ccc(C)cc3)CC2)cc1OC`?
Ba CapD inh: -0.94

Results for Cn1c(=NC(=O)C2CCN(S(=O)(=O)c3cccs3)CC2)sc2ccccc21 ?
AID504770: -0.35

How did CC1(C)CC(=O)C(C=NCCN2CCNC2=O)=C(O)C1 do in these assays?
AID504770: -0.35; Ba CapD inh: -0.23

What do the screens show for `CCCC(=O)N1CCN(c2ccc(NC(=O)c3ccco3)cc2Cl)CC1`?
AID504770: 0.35

What do the screens show for `COc1ccccc1NC(=O)CSc1ccccc1`?
AID504770: -0.3; Ba CapD inh: 0.17

How did COc1ccc(Br)cc1C1=N/C(=C\C(Cl)=C\c2ccccc2)C(=O)O1 do in these assays?
Ba CapD inh: -0.38

What do the screens show for `Cc1cccc(OCC(=O)OC2CCOC2=O)c1` (configuration not stated)?
AID504770: 0.7

Results for CCN1CCN(C(=O)C2=COCCO2)CC1 ?
AID504770: 0.1; Ba CapD inh: 0.33

How did C=CCNc1ccc(C(F)(F)F)cn1 do in these assays?
AID504770: -0.6; Ba CapD inh: 2.1

What do the screens show for `CC(=O)Oc1ccc(C2Nc3ccc(C(C)=O)cc3C3C=CCC32)cc1` (configuration not stated)?
Ba CapD inh: 3.9

How did O=C1CC(Sc2nnc3ccccn23)C(=O)N1CCc1ccccc1 (configuration not stated) do in these assays?
AID504770: -0.25

Pulled by compound from the list above, 4 records:
How did CNC(=O)c1sccc1S(=O)(=O)Cc1c(Cl)cccc1Cl do in these assays?
Ba CapD inh: -0.33

Results for Cc1c(C)n(Cc2ccccc2)c2ccc(C(=O)O)cc12 ?
AID504770: -0.85; Ba CapD inh: 9.8

What do the screens show for `CCN1/C(=C2/SC(=S)N(CC(=O)O)C2=O)C=Cc2cc(OC)ccc21`?
AID504770: 0.6; Ba CapD inh: -0.005

What do the screens show for `Cc1cc(Br)ccc1SCC(=O)OCC(=O)N1CCCC(C)C1` (configuration not stated)?
AID504770: -0.2; Ba CapD inh: -0.96

At a glance, part of the list above:
What do the screens show for `CCOc1ccc(N2C(=O)C3C(c4ccc(F)cc4)OC4(C(=O)c5ccccc5C4=O)C3C2=O)cc1` (configuration not stated)?
Ba CapD inh: -0.05

What do the screens show for `COc1cc(Br)c(CN2CCN(C(=O)OCCc3ccc(C)cc3)CC2)cc1OC`?
Ba CapD inh: -0.94
